HSD17B inhib: qHTS Assay for Inhibitors of HSD17B4, hydroxysteroid (17-beta) dehydrogenase 4; Potency, µM (titrated, usually from 57.1 µM), for the others: at the top dose activity change, negative = inhibition, usual class: inhibitors; hit rate 7.6% among 75,000; 3-hydroxyacyl-CoA dehydrogenase type-2 (Homo sapiens), Q99714; recombinant HSD17B10, NADH fluorescence kinetic; many of its hits are not listed in these tables; AID 893, 2007; active = well fitted inhibition curve with a large enough effect; inconclusive = small, poorly fitted or top-dose-only effect; inactive = no such curve, though single readings can be large or run the other way;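 also: the protocol describes HADH2 (HSD17B10) and not the HSD17B4 of the title; nearly all actives have a fitted effect of over 70% in size; most hits overshoot -100% by far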
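Activity followed as NADH fluorescence increase (ex 360, em 450 nm) every 30 seconds for 4 min, using final 90 uM beta-hydroxybutyryl CoA and 1 mM NAD+. Recombinant His-tagged enzyme, 20 nM, pH 9.0 Tris buffer, 15 min compound preincubation.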
The depositor's hits bear a star; ? = inconclusive; [ ] = remark or other dose. % is scaled to controls: 0 for no effect and ±100 for the full control effect; potency is read from the fitted curve at half-maximal effect. Some of the compounds tested; rates above refer to the full screens.

| Structure | HSD17B inhib |
| --- | --- |
| CCCCCCCCCC(=O)O[C@H](CC(=O)O)C[N+](C)(C)C | 17% |
| Cc1onc(-c2ccccc2)c1C(=O)Nc1ccccc1C#N | -2% |
| Cc1ccc2nc(NC3=NCN(Cc4ccco4)CN3)nc(C)c2c1 | 17% |
| Cc1cc(/C=N/n2cnnc2)c(C)n1-c1ccc(OCc2ccccc2F)cc1 | -15% |
| COc1ccc(NC(=O)CN(c2cc(C)cc(C)c2)S(=O)(=O)c2c(C)n[nH]c2C)cc1 | 4% |
| COc1ccccc1NC(=O)C(C)NS(=O)(=O)c1ccc(Cl)cc1 (stereo unspecified) | -6% |
| O=C(C1CC1)n1cc(C(=S)N2CCOCC2)c2ccccc21 | ? |
| O=S(=O)(Nc1ncnc2sc3c(c12)CCC3)c1ccc(Cl)s1 | 25µM* |
| Cc1ccccc1-c1ccc2ncnc(N3CCNCC3)c2c1 | 4% |
| Cc1cc(C)c(C#N)c(SCc2ccc3c(c2)OCO3)n1 | -21% |
| COC(=O)Nc1nnc(Cc2ccccc2)s1 | 2% |
| O=C(C1CC(c2ccc(F)cc2)=NO1)N1CCN(c2ccccc2)CC1 (stereo unspecified) | 13% |

The closing 6 records of the part above open the next one.
| Structure | HSD17B inhib |
| --- | --- |
| O=C(C1CC1)n1cc(C(=S)N2CCOCC2)c2ccccc21 | ? |
| O=S(=O)(Nc1ncnc2sc3c(c12)CCC3)c1ccc(Cl)s1 | 25µM* |
| Cc1ccccc1-c1ccc2ncnc(N3CCNCC3)c2c1 | 4% |
| Cc1cc(C)c(C#N)c(SCc2ccc3c(c2)OCO3)n1 | -21% |
| COC(=O)Nc1nnc(Cc2ccccc2)s1 | 2% |
| O=C(C1CC(c2ccc(F)cc2)=NO1)N1CCN(c2ccccc2)CC1 (stereo unspecified) | 13% |
| Cc1ccc(-n2nnc3c(SCC(=O)NCc4ccco4)ncnc32)cc1 | 9% |
| Fc1ccc(-n2c(-c3ccco3)nc3nc4ccccc4nc32)cc1 | 2.5µM* |
| Cc1ccc(OCCn2c(NC(=O)c3ccco3)nc3ccccc32)cc1 | 6.3µM* |
| CCOc1ccc2nc(N3CCC(C(=O)N4CCN(c5ccccn5)CC4)CC3)sc2c1 | -11% |
| CCCCCOc1ccc(C2NC(=O)NC2=O)cc1 (stereo unspecified) | 8% |
| Cc1ccccc1Cn1c(=N)n(CC(O)c2ccco2)c2ccccc21 (stereo unspecified) | 6% |
| CC(C)(C)C1(c2ccccc2)NC(=O)N(CC(=O)N2CCOCC2)C1=O (stereo unspecified) | 7% |
| C=CCOc1ccc(C2C(C(=O)c3ccco3)=C(O)C(=O)N2Cc2cccnc2)cc1 (stereo unspecified) | 2% |
| Cc1cc(N2CCN(C(=O)c3ccco3)CC2)n2nc(C)c(-c3ccccc3)c2n1 | 25µM* |
| O=C(NCc1cccs1)c1nc2c(nnn2Cc2ccccc2Cl)c(=O)[nH]1 | -12% |
| Nc1nc(Nc2cccc(F)c2)nc2ccccc12 | ? |
| CCOc1ccccc1NC(=O)CN(C)S(=O)(=O)c1ccc(OC)c(C)c1 | -11% |
| c1ccc(-n2c(SCC3CCCCO3)nnc2-c2cnccn2)cc1 (stereo unspecified) | 5% |
| Cc1cc(C)nc(/N=C(\N)C2=C(O)CC(C)(C)CC2=O)n1 | -4% |
| O=C1CCCc2c1[nH]c1ccc(CN3CCCCC3)cc21 | 32µM* |
| CCCCc1ccc(NC(=O)c2c(C)noc2C)cc1 | 1% |
| CCC1C(=O)n2nc(-c3ccccc3)cc2N=C1C (stereo unspecified) | 25µM* |
| CNc1nc(-c2ccc3c(c2)OCO3)nc2ccccc12 | ? |
| Cc1ccc(Nc2cc(C)nn2-c2nc(C)cc(C)n2)cc1 | 5% |
| O=C(CC(Cc1ccccc1)C(=O)O)NCCc1ccc2c(c1)OCO2 (stereo unspecified) | 2% |
| Cc1cc(C)n(-c2ccn(Cc3ccc(Cl)cc3Cl)c(=O)n2)n1 | 5% |
| Cn1c(SCC(=O)N2CCCCC2)nc2cccnc21 | 8% |
| CC(=O)OC1CCC2(C)C3=C(CCC2C1(C)C)[C@]1(C)CCC(C(C)CCC=C(C)C)[C@]1(C)CC3 (stereo partly specified) | 0% |
| COc1cc(OC)cc(C(=O)NC(C(=O)NCCN(C)C)C23CC4CC(CC(C4)C2)C3)c1 (stereo unspecified) | -1% |
| Cn1c(=O)c2cn(-c3cccc4ccccc34)cc2n(C)c1=O | ? |
| COc1ccccc1N1CCN(C(c2ccccc2Cl)c2nnnn2C(C)(C)C)CC1 (stereo unspecified) | -7% |
| c1ccc(Cn2nnc3c(N4CCCCCC4)ncnc32)cc1 | -1% |
| CC(C)c1ccc(Nc2nc(NCc3ccco3)nc(N3CCOCC3)n2)cc1 | -17% |
| COc1cc(C)c(C)cc1S(=O)(=O)N1CCN(Cc2ccc3c(c2)OCO3)CC1 | -22% |
| O=c1c(-c2cc(F)cc(F)c2)nc2cnc(Oc3ccccc3)nc2n1C[C@H]1CCCO1 | ? |
| CC(C)Oc1ccc2c(=O)c3cc(C(=O)O)ccc3oc2c1 | 16µM* |
| Cc1cc(NC(=O)c2cnn3cccnc23)no1 | 0% |
| COC(=O)c1ccc(-c2cc(C(=O)O)c3cc4c(cc3n2)OCCO4)cc1 | 32µM* |
| COc1ccc2nc(NC(=O)CN3CCN(C)CC3)sc2c1 | 5% |
| CCOCCCn1c(=N)c(C(=O)NCc2ccc3c(c2)OCO3)cc2c(=O)n3cccc(C)c3nc21 | ? |
| CCN1CCN(c2c(Cl)cccc2NC(=O)c2ccc(Br)o2)CC1 | -3% |
| CC(C)CO/N=C1/C[C@@H](O)[C@@H](O)[C@@H]2[C@@H]3C(=O)N([C@@H](C)c4ccccc4)C(=O)[C@H]3CC[C@H]12 | 2%[11.4 µM] |
| COC(=O)CN(c1ccc2c(c1)OCO2)S(C)(=O)=O | -8% |
| Cc1sc2ncn(-n3c(C)ccc3C)c(=O)c2c1C | -5% |
| O=C1NC(=O)C2(CCc3ccccc32)N1 (stereo unspecified) | -5% |
| O=C(O)/C=C\C(=O)Nc1ccc2c(c1)C(=O)c1cc(F)ccc1-2 | 2%[11.4 µM] |
| CS(=O)(=O)N(CCc1ccccc1)CC(=O)NCc1ccc2c(c1)OCO2 | 5% |
| O=C(CSc1nnc(-c2cccs2)n1-c1ccccc1)N1CCOCC1 | -3% |
| OC1(c2cccc(F)c2)CCN(Cc2ccncc2)CC1 | 4% |
| O=C(CCC1CCCC1)NCCCN1CCOCC1 | 12% |
| CN(C(=O)COC(=O)C1CCN(S(=O)(=O)c2cccs2)CC1)C1CCS(=O)(=O)C1 (stereo unspecified) | 3% |
| COc1ccc(C2CC(c3ccc(F)cc3)Nc3nc(N)nn32)cc1 (stereo unspecified) | 2% |
| CCc1nnc(NC(=O)CN2CCN(c3nc(-c4ccccc4)cs3)CC2)s1 | -6% |
| O=C(NCc1ccco1)c1ccc2c(c1)C(=O)N(Cc1ccccc1)C2=O | -1% |
| O=C(OCCOCCO)c1ccccc1Nc1cccc(C(F)(F)F)c1 | -12%[25.6 µM] |
| COc1ccc2[nH]c(=O)c(CN(CCN(C)C)C(=O)NCc3ccccc3)cc2c1 | 32µM* |
| O=C(O)CCSc1nc2ccc(Br)cc2[nH]1 | -6% |
| O=C1C2CC=CCC2C(=O)N1c1ccc(OCC(O)Cn2nnc3ccccc32)cc1 (stereo unspecified) | -1% |
| CCC/C=C(\CCC)C(NC(=O)CCc1ccccc1)c1ccc(C(F)(F)F)cc1 (stereo unspecified) | -1% |
| CCCNc1nc2c(c(=O)n(C)c(=O)n2C)n1CCc1ccccc1 | 0% |
| O=C(CCNS(=O)(=O)c1cccc2nsnc12)NCCC1=CCCCC1 | -10% |
| CCOc1cccc(-c2nnc(SCC(=O)Nc3cc(C)ccc3OC)n2N)c1 | -2% |
| CC(=O)c1cccc(NC(=O)c2nccnc2C(=O)O)c1 | -2% |
| CC1=C(C(=O)OCc2ccccc2)C(c2ccc(Cl)cc2)NC(=O)N1CCCCCC(=O)O (stereo unspecified) | -22% |
| CC(C(=O)Nc1ncc2c(n1)CC(C)(C)CC2=O)N1C(=O)c2ccccc2C1=O (stereo unspecified) | 13% |

Continuation.
| Structure | HSD17B inhib |
| --- | --- |
| COc1ccccc1CNC(=O)c1cc2sccc2n1C | -6% |
| COC(=O)COc1ccc(S(=O)(=O)N2CCOCC2)cc1C | -1% |
| CC(C)CCn1c(NCCN(C)C)nc2c1c(=O)[nH]c(=O)n2C | 1% |
| CC1(C)CC(=O)C([C@H]2C3=C(CC(C)(C)CC3=O)Oc3ccccc32)C(=O)C1 | 3% |
| O=C(c1ccc(Cl)c(F)c1F)N1CCCC1 | 3% |
| Cc1ccc(S(=O)(=O)Cn2nnnc2C(CC(C)C)N2CCN(c3ccc(F)cc3)CC2)cc1 (stereo unspecified) | -13% |
| Cc1ccc2nc(CSc3nnc(Cc4cccs4)n3C3CCCCC3)cc(=O)n2c1 | ? |
| CC1=C(C(=O)NC2CCCC(C)C2C)C2(CCCCC2)OC1=O (stereo unspecified) | 1% |
| COc1ccc(Cl)cc1NC(=O)c1c(-c2ccccc2)noc1C | 27% |
| Cc1ccc(-c2noc(C3CCCN(C(=O)c4ccccc4)C3)n2)o1 (stereo unspecified) | -3% |
| COc1ccc(CCNC2CCN(C)CC2)cc1OC | 4% |
| COC(=O)c1cc(NC(=O)CN2C(=O)CSC2=O)ccc1Cl | 0% |
| COc1ccccc1N1CCN(C(=O)CSc2ccc3c(C)cc(C)nc3n2)CC1 | -6% |
| CCOC(=O)c1cc(-c2nnc(SCC(=O)Nc3ccc(F)cc3)o2)c(C)nc1C | 3% |
| COC(=O)c1ccccc1NC(=O)CSc1nc2ccccc2c(=O)[nH]1 | 4% |
| CSCCC1NC(=O)N(CC(=O)Nc2ccc(N3CCCCC3)cc2)C1=O (stereo unspecified) | 2% |
| CCc1ccccc1NC1=NCC(=O)N1C1CCCCC1 | 4% |
| CC(=O)NCCc1ccc(S(=O)(=O)Nc2cccnc2)cc1 | 0% |
| COc1ccc(-c2cc(N)n(S(=O)(=O)c3c(F)c(F)c(F)c(F)c3F)n2)cc1OC | ? |
| Cc1nn(C)c(C)c1CN(C)C(=O)c1cc2nc(-c3ccco3)cc(C(F)(F)F)n2n1 | ? |
| Cc1cc(Cl)c(S(=O)(=O)Nc2ccc3c(c2)OCCO3)cc1OCC(N)=O | 0% |
| O=C(Nc1ccon1)c1cccc(C(F)(F)F)c1 | 2% |
| CCOc1ccc(S(=O)(=O)Nc2ccc(S(=O)(=O)N3CCOCC3)cc2)cc1 | -6% |
| O=C(COc1ccccc1)Nc1ccccc1N1CCN(c2ccccc2)CC1 | 6% |
| CC(C)Oc1cc(O)c2c(c1)OCC=C2CCC(=O)O | 4%[11.4 µM] |
| CC1(O)C(=O)C=C2C=C(CCCCOCc3ccccc3)OC=C2C1=O (stereo unspecified) | -16%[11.4 µM] |
| COc1ccc(-c2oc3ncn(CCN4CCOCC4)c(=N)c3c2-c2ccc(OC)cc2)cc1 | 98%[activator] |
| C=CCOC(=O)c1[nH]c2c(c1C)C(=O)CC(c1ccco1)C2 (stereo unspecified) | -29% |
| O=C(CN1C2CCCC1CC(NC(=O)c1ccco1)C2)Nc1ccccc1C(F)(F)F (stereo unspecified) | 2% |
| CCC(=O)N1CCCc2cc(S(=O)(=O)N3CCN(c4ccccc4F)CC3)ccc21 | 2% |
| CC(C)CC(NC(=O)C1CCC(C)CC1)C(=O)N1CCN(c2ccccn2)CC1 (stereo unspecified) | 32µM* |
| C=CCN1C(=O)C(O)(CC(=O)c2c(C)n[nH]c2C)c2cc(Br)ccc21 (stereo unspecified) | 6% |
| CC(C)CN1C(=O)NC(NC(=O)c2ccco2)(C(F)(F)F)C1=O (stereo unspecified) | 2% |
| CNC(=O)NC1CCCc2ccccc21 (stereo unspecified) | 0% |
| COC(=O)c1ccc2c(c1)S(=O)(=O)NC(=NCc1ccco1)S2 | -1% |
| Cn1c(=O)[nH]c(=O)c2c1nc(NCCCn1ccnc1)n2Cc1ccc(F)cc1 | 7% |
| CC(C)C(N)C(=O)NC(Cc1c[nH]c2ccccc12)C(=O)O (stereo unspecified) | 0% |
| C=C(C)Cn1c(CCCNC(=O)CCC)nc2ccccc21 | 7% |
| Cc1[nH]nc2c1C1(CCOCC1)C(C#N)=C(N)O2 | 5% |
| COC(=O)[C@H](CCSC)NC(=O)NC1CCN(Cc2ccccc2)CC1 | -3% |
| CN(Cc1ccccc1)S(=O)(=O)c1ccc2c(c1)OCCO2 | -1% |
| O=C(NCC1CCNCC1)c1ccncc1 | 14% |
| C=CCn1c(=O)n(CCC#N)c(=O)n(CCC#N)c1=O | -7% |
| Cn1c(=O)oc2cc(S(=O)(=O)N3CCCc4ccccc43)ccc21 | -3% |
| COc1ccc(-c2cc(CCCC(=O)NCCc3ccc(OC)cc3OC)no2)cc1 | -2% |
| CO[C@@H]1/C=C\O[C@]2(C)Oc3c(C)c(O)c4c(O)c(c(CN(C)C)c(O)c4c3C2=O)NC(=O)/C(C)=C\C=C[C@@H](C)[C@@H](O)[C@H](C)[C@@H](O)[C@H](C)[C@H](OC(C)=O)[C@@H]1C | -1%[11.4 µM] |
| COc1cc(C(=O)Nc2ccc(S(=O)(=O)Nc3cc(C)on3)cc2)cc(OC)c1OC | 11% |
| Cc1ccc(-c2nnc(N(C)C(=O)c3ccccn3)s2)cn1 | 102%[activator] |
| COc1cccc(C2/C(=C(/O)c3ccncc3)C(=O)C(=O)N2CCCN(C)C)c1 (stereo unspecified) | -2% |
| CC(C)(/C=N/O)/[N+]([O-])=C/C=[N+](\[O-])C(C)(C)/C=N/O | -7% |
| O=C(Nc1nc(-c2nc3ccccc3s2)cs1)c1ccc(S(=O)(=O)N2CCOCC2)cc1 | 109%[activator] |

Screens from PubChem BioAssay.
